Screening results from PubChem BioAssay.
PINK1 expr mod – changes PINK1 expression; PINK1 immunofluorescence, high-content cytometry, 24 h; Potency, µM (doses to about 76.6 µM), for inactives: at the highest dose activation (PINK1 increase), hits mostly activators; 410,000 compounds, 0.2% hits; AID 624263; active = well fitted activation curve with a large enough effect; inconclusive = small, poorly fitted or top-dose-only effect; inactive = flat fitted curve, though single readings scatter; cell line not stated here;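 note: potency is the fitted concentration of half-maximal effect; % of control where 0% means no effect; nearly all actives have a fitted effect of over 65% in size; a mitochondrial uncoupler was the plate control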
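Compound titrations (5 concentrations, 24 h) on a stable cell line; DMSO and CCCP controls. Endpoint: fixed-cell PINK1 immunofluorescence with mitochondrial, cell and nuclear markers, scanned by microplate cytometer.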
TRPML1 blocker – blocks the human TRPML1 channel. TRPML1-inducible cells, Ca2+ dye fluorescence, FDSS; stronger effect = lower value; inhibition of EC80 agonist-evoked calcium signal. activity change, negative = inhibition, % (concentration not given with the values). Q9GZU1. 390,000 compounds, 0.02% hits; in the data active means activity change below about -50%; inconclusive means about -30% to -50%; inactive means above about -30%;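 note: stimulus is agonist 54-4 at its EC80 concentration; % is set by controls: 0 for no effect and ±100 for the full control effect; the text of the record puts the active cut at -80%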
Target sequence (Q9GZU1 whole entry, looked up): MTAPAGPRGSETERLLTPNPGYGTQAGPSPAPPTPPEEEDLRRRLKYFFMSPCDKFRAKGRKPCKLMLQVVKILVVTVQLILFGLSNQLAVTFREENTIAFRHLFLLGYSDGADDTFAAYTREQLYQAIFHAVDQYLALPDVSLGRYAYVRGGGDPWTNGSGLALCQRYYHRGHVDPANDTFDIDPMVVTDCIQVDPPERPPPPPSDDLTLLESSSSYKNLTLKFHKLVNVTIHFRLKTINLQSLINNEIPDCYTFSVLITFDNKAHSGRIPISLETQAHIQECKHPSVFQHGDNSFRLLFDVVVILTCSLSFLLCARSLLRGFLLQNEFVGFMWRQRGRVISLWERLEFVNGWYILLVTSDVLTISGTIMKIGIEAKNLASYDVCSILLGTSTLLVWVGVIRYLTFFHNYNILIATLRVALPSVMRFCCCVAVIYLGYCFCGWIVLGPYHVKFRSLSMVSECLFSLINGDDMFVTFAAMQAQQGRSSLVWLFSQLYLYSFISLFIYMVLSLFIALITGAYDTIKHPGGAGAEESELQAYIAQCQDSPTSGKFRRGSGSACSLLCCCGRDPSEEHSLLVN
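TRPML1-DL cells, Tet-induced overnight (~16 h, 37 °C) at 1,500 cells/well, were loaded with Ca8 no-wash dye plus quencher for 45-90 min at room temperature. Compounds were pinned during FDSS kinetic reading; agonist 54-4 at EC80 (4 uM final) then added.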
D2 ag – agonists of human D2 dopamine receptor (beta-arrestin) | DiscoveRx PathHunter D2 beta-arrestin, luminescence, 90 min; 100% = 57 uM dopamine signal | P14416 | 360,000 compounds, 0.084% hits | activation, % (concentration not given with the values); in the data active = activation above about 40%; inconclusive = about 15% to 40%; inactive = below about 15%; note: the text of the record calls up to 30% inactive
Target sequence (P14416 whole entry, looked up): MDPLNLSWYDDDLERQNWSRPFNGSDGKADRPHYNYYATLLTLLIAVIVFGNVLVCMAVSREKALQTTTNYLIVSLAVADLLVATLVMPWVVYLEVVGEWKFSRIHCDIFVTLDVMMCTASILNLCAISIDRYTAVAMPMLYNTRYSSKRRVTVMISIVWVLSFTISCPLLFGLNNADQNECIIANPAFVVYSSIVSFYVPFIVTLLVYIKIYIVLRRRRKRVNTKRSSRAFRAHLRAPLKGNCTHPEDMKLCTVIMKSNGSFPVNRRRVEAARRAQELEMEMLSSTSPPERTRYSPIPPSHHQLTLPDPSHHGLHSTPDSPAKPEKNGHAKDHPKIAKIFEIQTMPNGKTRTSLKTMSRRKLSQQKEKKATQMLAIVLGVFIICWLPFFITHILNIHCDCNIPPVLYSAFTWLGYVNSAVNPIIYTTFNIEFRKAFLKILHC
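Agonist mode: compounds alone added to overnight-plated D2 PathHunter cells for 90 min at 37 C, with 57 uM final dopamine (EC100) defining full response. Beta-arrestin recruitment detected by chemiluminescent reagent, read after 1 h at ambient temperature.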
CtBP-E1A inh – inhibitors of CtBP/E1A interaction; activity change, % (concentration not given with the values); 340,000 compounds, 0.49% hits; AlphaScreen GST-E1A/His-CtBP binding, 1536-well; stronger effect = lower value; control for the full effect not named in the record; AID 651724; in the data active means activity change below about -65%; inconclusive means about -30% to -65%; inactive means above about -30%; note: % is set by controls: 0 for no effect and ±100 for the full control effect
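GST-E1A and His-tagged CtBP (125 nM each as 5X stock) were preincubated with pin-transferred compound for 2 h at 37 °C in the dark, then glutathione donor and nickel acceptor beads were added for 1 h before AlphaScreen reading.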
TRPML1 ag – human mucolipin-1 channel agonism | Q9GZU1 | TRPML1-expressing cells, Ca2+ dye fluorescence, FDSS; host cell line not named in the record; reference of the full effect not given here | activation, % (test concentration not listed) | 410,000 compounds, 0.12% hits; in the data active = activation above about 50%; inconclusive = about 30% to 50%; inactive = below about 30%; note: 0% is about no effect; the text of the record puts the active cut at 80%
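Agonist activity was taken from a 110 s kinetic Ca2+ dye read on the FDSS after pinning compounds onto TRPML1-DL cells. The cells were seeded at 1,500/well with Tet inducer, incubated about 16 h, then dye-loaded at room temperature.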
Six1-Eya2 inh – Six1/Eya2 interaction inhibition; 360,000 compounds, 0.56% hits; AID 651725; activity change, % (test concentration not listed); AlphaScreen GST-Six1/His-Eya2 binding, biochemical; stronger effect = lower value; control for the full effect not named in the record; in the data active = activity change below about -65%; inconclusive = about -30% to -65%; inactive = above about -30%; note: % is set by controls: 0 for no effect and ±100 for the full control effect
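AlphaScreen with GST-Six1 and His-Eya2 (5X mix: 250 nM and 500 nM), glutathione donor and nickel acceptor beads; buffer 50 mM Tris pH 8.0, 300 mM NaCl, 1 mM TCEP; 1 h at 37 C in the dark.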
An asterisk follows results filed as active; ? = inconclusive; · = no result given; & = joins results of further samples; [ ] = another dose, or the depositor's remark.

Every second line gives: PINK1 expr mod, TRPML1 blocker, D2 ag, CtBP-E1A inh, TRPML1 ag, Six1-Eya2 inh
[1] NS(=O)(=O)c1cc(C(=O)N2CCNC(=O)C2)ccc1Cl
 : -1.0%, -3, 0.7, 3, -0.4, 6
[2] CC(C)S(=O)(=O)N1CCN(c2ccnc3cc(Cl)ccc23)CC1
 : -0.6%, 2, 0.9, 4, 1.0, 5
[3] C/C(=N\NC(=O)c1cc(-c2cccnc2)nc2ccccc12)c1ccccc1O
 : 9.7%, -7, -2.2, -9, -0.5, ?
[4] CCC(c1nc2ccccc2c(=O)n1-c1cccnc1)N1C(=O)c2ccccc2C1=O (centres undefined)
 : -1.2%[38.3 µM], 2, -3.7, 6, 0.0, 4
[5] CC(=O)Nc1cccc(Oc2cc(C#N)c(C#N)cc2N2CCOCC2)c1
 : -0.1%, -2, -0.2, -9, -0.7, -12
[6] COc1ccccc1OCCCn1c(=O)oc2ccc(C)cc21
 : -0.3%, -12, -1.9, -6, 0.7, 6
[7] CCc1ccccc1NC1=CC(=O)CC(C)(C)C1
 : -0.3%, 23, -3.1, 0, 0.0, 7
[8] O=C(O)CCC(=O)Nc1ccc(Br)c(Cl)c1
 : 2.0%, 10, -0.7, 0, 0.7, 8
[9] Cc1csc(NC(=O)CSCC(=O)O)c1-c1nc2ccccc2s1
 : 2.3%, 6, 1.4, -18, 1.3, ?
[10] O=C(NC1CCN(S(=O)(=O)c2ccccc2)CC1)C1CCCCC1
 : -0.1%[38.3 µM], -3, -0.1, 14, -0.2, 4
[11] C=C(C)CNC(=O)CCc1nnc(C2(c3ccc(Cl)cc3)CCC2)o1
 : 3.1%, -7, -5.2, ·, -1.1, -5
[12] O=C(Nc1cccc(C(F)(F)F)c1)c1cc(-c2cccs2)on1
 : 6.2%[38.3 µM], 14, -1.5, 8, 2.3, 6
[13] Cc1cccc(C)c1NC(=O)c1cc(S(=O)(=O)N2CCc3ccccc32)cn1C
 : 3.3%, 0, -0.7, -1, 1.6, 0
[14] Cc1occc1-c1n[nH]c(=S)n1CC(C)C
 : 7.3%[38.3 µM], -8, -0.1, -9, -0.8, -5
[15] COc1cccc(NC(=O)CN(C)CC(=O)NCc2ccco2)c1
 : -0.9%, -6, -1.2, -2, 0.2, -3
[16] CN(CC(=O)NCc1ccc(Cl)cc1)S(=O)(=O)c1cccc2nsnc12
 : -1.9%, 2, -6.0, 8, 0.4, -9
[17] Nc1ccc2[nH]c(=S)[nH]c2c1
 : -2.1%, 2, -2.3, 3, 1.7, 1
[18] COc1ccccc1CNC(=O)c1ccc2ccccc2n1
 : 1.3%, 13, -1.8, 3, -0.8, -2
[19] Fc1ccc(NC(=S)NCc2ccccc2Cl)cc1
 : ?, 2, 1.4, 15, 0.3, 9
[20] COc1ccc(NC(=O)CSc2nc(-c3ccccc3)c3ccccc3n2)cc1
 : 0.9%, -11, ·, ·, 0.0, ·

Given as labelled records: 2 of the compounds above
4) CCC(c1nc2ccccc2c(=O)n1-c1cccnc1)N1C(=O)c2ccccc2C1=O (centres undefined)
- PINK1 expr mod: -1.2%[38.3 µM]
- TRPML1 blocker: 2
- D2 ag: -3.7
- CtBP-E1A inh: 6
- TRPML1 ag: 0.0
- Six1-Eya2 inh: 4
5) CC(=O)Nc1cccc(Oc2cc(C#N)c(C#N)cc2N2CCOCC2)c1
- PINK1 expr mod: -0.1%
- TRPML1 blocker: -2
- D2 ag: -0.2
- CtBP-E1A inh: -9
- TRPML1 ag: -0.7
- Six1-Eya2 inh: -12

The listing continues:
Every second line gives: PINK1 expr mod, TRPML1 blocker, D2 ag, CtBP-E1A inh, TRPML1 ag, Six1-Eya2 inh
[21] COC(=O)Cc1[nH]n(-c2ccccc2)c(=O)c1C(C)=Nc1ccccc1
 : -0.6%, -3, -3.3, -18, 1.5, 18
[22] COc1cccc(C(=O)NCCNC(=O)c2ccc(C)nc2)c1
 : -2.1%, 1, -3.9, 0, -0.2, 0
[23] O=C(/C=C/c1ccco1)Nc1cccc(NC(=O)/C=C/c2ccco2)n1
 : -1.9%, 18, 2.3, 2, 1.3, -15
[24] O=C(Cc1ccccc1)NNS(=O)(=O)c1ccc(F)cc1
 : -0.7%, -22, -5.2, ·, 0.2, 5
[25] COc1ccc(C2/C=C\CN(CC(C)C)CC(=O)N2Cc2ccc(F)cc2)cc1 (centres undefined)
 : 0.5%, 72&38, -3.9, 0, 2.9&1.7, -4
[26] NC(=O)[C@@H]1CC2(CC(c3cccc(NC(=O)[C@H]4CCC(=O)N4)c3)=NO2)CN1C(=O)c1ccc(Cl)cc1 (some centres undefined)
 : -1.0%, 4, -1.4, 0, -0.3, 6
[27] O=C1ON(Cc2ccccc2)C(c2ccccc2)N1c1ccccc1 (centres undefined)
 : -2.8%, 18, -1.5, 3, 0.3, 0
[28] Cc1ccc(NC(=O)C2C(=O)N(C)c3ccccc32)cc1 (centres undefined)
 : -0.3%, -13, -3.3, 2, 0.9, 12
[29] CCOC(=O)N1CCN(C(=O)CCn2c(=S)[nH]c3ccsc3c2=O)CC1
 : -1.4%, 48, 2.6, 12, 1.0, 14
[30] CC(O)C1CCC2C3CC[C@H]4CC(O)CCC4(C)C3CC3(OCCO3)C12C (some centres undefined)
 : -2.2%[38.3 µM], -1, -4.0, -4, 0.5, 2
[31] C=CCc1c(C)nc(C)nc1N/N=C/c1ccccc1
 : 2.4%, 17, -3.1, 0, -0.4, -9
[32] CC(O)c1nc2ccc(Cc3ccc4nc(C(C)O)[nH]c4c3)cc2[nH]1 (centres undefined)
 : 0.5%, -9, -2.9, -1, -0.3, 6
[33] Cc1c(OCC(=O)NCCCN2CCOCC2)ccc2c3c(c(=O)oc12)CCC3
 : 0.6%, -11, -0.7, ?, -0.1, -21
[34] CCOC(=O)c1sc(/N=C/C2=C(O)CC(C)(C)CC2=O)c(C(=O)OCC)c1C
 : -0.2%, 10, -3.3, -1, 2.2, 0
[35] CC(=O)N(C)C1=C(N2CCOCC2)C(=O)c2ccccc2C1=O
 : -6.9%[38.3 µM], -8, 6.8, -10, -0.5, -9
[36] O=[N+]([O-])c1cccc(CSC2=NCCN2S(=O)(=O)c2ccccc2)c1
 : 1.5%, 62, 4.1, -7, 0.9, -13
[37] Nc1nc(SCC(=O)Nc2cccc([N+](=O)[O-])c2)n[nH]1
 : 2.6%, 7, -0.4, -2, -0.3, 5
[38] O=C1NC2(CCOc3ccccc32)C(=O)N1CC(=O)N(Cc1ccccc1)C1CCS(=O)(=O)C1 (centres undefined)
 : 0.3%, 7, -1.6, -2, 0.5, 5
[39] Cc1nc2c(c(-c3ccccc3)c1C#N)C(=O)c1ccccc1-2
 : 1.3%, -4, -0.5, -6, -0.5, -8
[40] Cc1ccccc1-n1nnnc1Sc1nnnn1-c1ccccc1
 : -2.7%, 34, -1.5, 1, -0.1, -1

Compound profiles, as listed above. Order of screens: PINK1 expr mod	TRPML1 blocker	D2 ag	CtBP-E1A inh	TRPML1 ag	Six1-Eya2 inh
Record of `Cc1c(OCC(=O)NCCCN2CCOCC2)ccc2c3c(c(=O)oc12)CCC3` = 0.6%	-11	-0.7	?	-0.1	-21
Record of `O=C1ON(Cc2ccccc2)C(c2ccccc2)N1c1ccccc1` (centres undefined) = -2.8%	18	-1.5	3	0.3	0

Continued:
Every second line gives: PINK1 expr mod, TRPML1 blocker, D2 ag, CtBP-E1A inh, TRPML1 ag, Six1-Eya2 inh
[41] CC(C)(C)Cc1c(-c2cccc(Cl)c2)nc2ccc(Cl)cn12
 : ?, ·, -5.2, -5, 0.2, -7
[42] O=C(c1cc(-c2ccc(Cl)cc2)on1)N(Cc1cccc(F)c1)Cc1ccco1
 : 2.8%, 15, ·, ·, 2.2, ·
[43] OCC[C@H]1C[C@H](O)[C@@H](O)[C@]2(Cc3ccccc3CCO2)O1
 : 1.3%, 34, -5.0, ·, 0.1, 2
[44] Cc1ccc(NC(=O)COC(=O)c2ccc[n+]([O-])c2)c(Br)c1
 : 0.4%, 18, -0.5, 0, 3.0, 0
[45] CCC(C)[C@H]1CNCCN1CCc1cccc(F)c1 (some centres undefined)
 : 0.3%, -7, -4.3, ·, 0.0, 12
[46] CN1CCN(/N=C/c2nc(-c3cccc([N+](=O)[O-])c3)n3ccccc23)CC1
 : -3.2%, -8, -2.4, 1, 1.1, -4
[47] O=C(COc1ccccc1)NS(=O)(=O)c1ccc(Cl)cc1
 : 0.7%, 7, -0.8, -4, 0.4, 2
[48] CCC(=O)N1CCc2cc(Br)cc(S(=O)(=O)CCC(=O)NCC3CCCO3)c21 (centres undefined)
 : 1.6%, -15, -2.5, 2, 0.8, -4
[49] COc1ccccc1N1CCN(S(=O)(=O)CCNC(=O)/C=C/c2ccc3c(c2)OCO3)CC1
 : 1.0%, -6, 4.4, -4, -0.2, ?
[50] CC1(C)CC(=O)C2=C(C1)N1C(=C(C#N)C2c2ccc(Cl)cc2)N=C(N)c2ccccc21 (centres undefined)
 : 4.6%, 14, -2.7, -15, 2.8, -20
[51] C=CCn1c(C)cc(C(=O)CN2C(=O)c3ccccc3C2=O)c1C
 : ·, 7, -0.4, -6, 0.8, -8
[52] CC(Sc1nc2ccccc2c(=O)n1C)C(=O)NC1CCCCC1C (centres undefined)
 : 0.5%, -11, 12, -1, 2.3, -4
[53] CCN(C[C@H]1N[C@@](Cc2ccccc2)(C(=O)OC)[C@H]2C(=O)N(C)C(=O)[C@@H]12)C(=O)Nc1ccc(C(F)(F)F)cc1
 : 0.9%, -3, -0.9, 8, -0.6, 6
[54] Cc1ccc(N2CCN(C(=O)CCc3nc4ccccc4[nH]3)CC2)c(C)c1
 : 1.9%, 11, -4.1, ?, 1.5, -9
[55] O=C(O)CCCNC(=O)/C(=C\c1ccc(Cl)cc1)NC(=O)c1ccc(Br)cc1
 : 0.0%, -2, -1.0, -6, 0.4, -7
[56] CC1Cc2cc(-c3csc(NC(=O)CCl)n3)ccc2N1C(=O)C1CC1 (centres undefined)
 : 1.3%, 12, -2.3, -4, -0.2, -2
[57] COCCN(CCOC)C(=O)C12CCC(C)(C(=O)C1)C2(C)C (centres undefined)
 : -0.5%[38.3 µM], -9, 1.1, 3, -0.3, 6
[58] Cc1ccc(-n2ncc3c(=O)n(CC(=O)N4CCN(C(=O)c5ccco5)CC4)cnc32)cc1
 : 15%, 5, -1.0, -6, -0.7, -1
[59] COc1ccc(-c2ncc3ccccn23)cc1OC
 : 0.9%, 4, 1.0, 1, 1.1, -5
[60] NC(N)=NC1=NC(=O)/C(=C/c2ccccc2-n2cccn2)S1
 : -0.4%, -12, 4.8, 0, -0.5, -28
[61] CC(C)Cc1ccc(-c2cc3nc(NCCCn4ccnc4)ccn3n2)cc1
 : 14%, ·, ?, -8, -0.2, -16
[62] Cc1cc(/C=N\NC(=O)CC(=O)NC2CCCCC2)c(C)n1-c1ccc(Cl)c(Cl)c1
 : -3.6%[38.3 µM], -5, -1.0, -27, 1.0, -19
[63] CCOc1ccc(N(CC(=O)NC(C)CC)S(C)(=O)=O)cc1 (centres undefined)
 : 33%[38.3 µM], -11, -2.7, -3, -0.9, 0
[64] CC1(c2ccccc2)CC(C)(C)N(C(N)=O)c2ccccc21 (centres undefined)
 : 5.2%, -18, -5.7, ·, 1.3, 5
[65] CC(C)N(C)CCOC(=O)c1ccccc1Cl
 : 3.3%, -5, -4.6, -13, 0.6, 7
